# thrombin 1536 = human alpha-thrombin inhibitors, primary screen, counter-screen for coagulation protease inhibitor project, biochemical, 1536-well, fluorogenic AMC substrate; Prothrombin (Homo sapiens), P00734; Boc-VPR-AMC fluorogenic substrate cleavage; inhibition, % at 5 µM; 220,000 compounds, 0.26% hits;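 active = inhibition at or above 40%; inactive = inhibition below 40%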;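 also: 0% = enzyme with no compound and 100% = wells without enzyme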
#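 System – human alpha-thrombin · Medium – pH 7.5 Tris (50 mM) with NaCl 150 mM, Tween 20 0.05% · Compound – single-point dosing at 5 µM, 0.2% DMSO · Incubation – enzyme reaction carried out at room temperature · Technique – fluorescence of released AMC, ex 355 nm, em 460 nm · Read-out basis – % inhibition of thrombin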
# KLK5 inh = human KLK5 protease inhibitors, primary screen, biochemical, 1536-well; Kallikrein-5 (Homo sapiens), Q9Y337; inhibition, % at 5 µM; recombinant hK5, fluorogenic AMC substrate cleavage; 210,000 compounds, 0.59% hits;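 active = inhibition of 40% or more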;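 also: 0% = enzyme controls without compound and 100% = no-enzyme blanks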
# FXIa inh 1536 = human FXIa protease inhibitors, primary screen, biochemical, 1536-well | AID 798, 2007 | 220,000 compounds, 0.14% hits | Coagulation factor XI (Homo sapiens), P03951 | inhibition, % at 5 µM | purified FXIa, Boc-Glu-Ala-Arg-AMC fluorogenic substrate;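 active = inhibition of at least 40%; inactive = inhibition below 40%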;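 also: fluorescence of freed AMC excited at 355 nm; 0% = enzyme without compound and 100% = no enzyme blank; many of its hits are not listed in these tables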
# 14-3-3 Bad inh = inhibitors of 14-3-3 zeta/Bad binding, primary screen, biochemical, TR-FRET, bovine 14-3-3 zeta; 14-3-3 protein zeta/delta (Bos taurus), P63103; TR-FRET 14-3-3zeta/Dy647-pBad peptide displacement, 1 h; inhibition, % at 21.7 µM; 220,000 compounds, 0.71% hits;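 active = inhibition above about 70%, limit read from the data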;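 also: 0% = full 14-3-3 plus peptide FRET controls and 100% = background without 14-3-3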
# Target sequence (P63103 whole entry, looked up): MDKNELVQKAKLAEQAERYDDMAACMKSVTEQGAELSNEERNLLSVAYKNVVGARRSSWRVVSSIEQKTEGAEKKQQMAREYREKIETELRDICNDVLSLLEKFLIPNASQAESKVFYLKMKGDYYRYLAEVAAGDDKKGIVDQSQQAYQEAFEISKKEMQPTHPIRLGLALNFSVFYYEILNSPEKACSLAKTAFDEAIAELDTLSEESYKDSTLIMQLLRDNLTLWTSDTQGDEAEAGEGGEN
# Wee1 stabilizer = Wee1 degradation inhibitors, primary screen, cell-based, HeLa, Wee1K328M-luciferase, luminescence; Wee1-like protein kinase (Homo sapiens), P30291; HeLa Luc-Wee1K328M stability; 100% = proteasome inhibitor MG132 effect; reporter increase, % at 5 µM; 220,000 compounds, 1.2% hits; AID 1321, 2008;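 active = activation above the mean of all tested compounds plus 3 SD, set per screening run, cut at about 8.8% in these data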;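 also: cells exposed to compound for 20 h before luminescence read; 0% = DMSO alone and 100% = MG132 at 30 µM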
# FXIIa inh 1536 = human FXIIa protease inhibitors, primary screen, biochemical, 1536-well; 220,000 compounds, 0.3% hits; Coagulation factor XII (Homo sapiens), P00748; purified FXIIa, Boc-QGR-AMC fluorogenic substrate, 2 h; AID 800, 2007; inhibition, % at 5 µM; in the data active = inhibition above about 40%;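 also: 0% = enzyme with no compound and 100% = blank without enzyme; many of its hits are not listed in these tables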
# Target sequence (P00748 20-372 limits assumed): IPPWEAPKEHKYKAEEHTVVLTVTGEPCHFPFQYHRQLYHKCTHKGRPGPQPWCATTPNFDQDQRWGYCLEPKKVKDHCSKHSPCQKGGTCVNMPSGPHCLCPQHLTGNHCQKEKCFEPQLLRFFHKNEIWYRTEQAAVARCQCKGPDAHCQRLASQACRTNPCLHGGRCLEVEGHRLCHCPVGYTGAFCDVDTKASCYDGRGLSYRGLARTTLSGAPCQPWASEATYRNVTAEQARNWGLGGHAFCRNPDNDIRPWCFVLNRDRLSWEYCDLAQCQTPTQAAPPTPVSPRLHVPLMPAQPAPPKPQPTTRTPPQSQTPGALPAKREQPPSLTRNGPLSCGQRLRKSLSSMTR
# Target sequence (P00748 373-615 limits assumed): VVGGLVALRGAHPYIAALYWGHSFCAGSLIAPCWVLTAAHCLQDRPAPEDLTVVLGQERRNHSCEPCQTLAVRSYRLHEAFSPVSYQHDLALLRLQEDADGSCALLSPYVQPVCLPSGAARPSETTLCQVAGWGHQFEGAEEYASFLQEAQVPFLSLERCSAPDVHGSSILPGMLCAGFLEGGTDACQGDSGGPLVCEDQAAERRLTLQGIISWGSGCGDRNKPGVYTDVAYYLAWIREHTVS
# Hck Nef HTS = inhibitors of Nef-activated human Hck kinase, primary screen, biochemical, Z-Lyte FRET, 384-well, Hck-YEEI; Tyrosine-protein kinase HCK (Homo sapiens), P08631; Recombinant Hck-YEEI plus Nef, Z-Lyte FRET kinase assay; inhibition, % at 20 µM; 220,000 compounds, 0.68% hits; AID 463187, 2010;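 active = Hck-Nef kinase inhibition above about 50%, limit read from the data; inactive = inhibition below that limit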;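 also: 0% = DMSO with Hck plus Nef and 100% = Hck alone without Nef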
# Active calls of the source: *; / = not tested or not shown; [ ] = remark or other dose.
SMILES,thrombin 1536,KLK5 inh,FXIa inh 1536,14-3-3 Bad inh,Wee1 stabilizer,FXIIa inh 1536,Hck Nef HTS
CC(C)(O)c1cn(-c2nonc2N)nn1,4.6,5.5,7.5,5.8,5.1,0.6,3.8
CCOc1cc(CNCc2cccs2)cc(Br)c1OC,-5.6,-21.1,-7.1,16.8,3.1,2.5,1.5
CN1C(=O)CC(NNC(=O)c2ccccc2)C1=O (centres undefined),0.1,-10.3,0.9,26.5,4.2,17.8,-0.8
CC(C)NC(=O)CC(=O)N/N=C/c1ccc(Br)cc1,-2.7,-4.0,2.2,0.6,-3.0,10.2,0.7
CC1=C(C#N)C(NC(=O)C(C)(C)C)(C(F)(F)F)C(=O)N1 (centres undefined),3.0,-14.0,1.0,2.1[fluorescence artefact?],-0.3,6.6,-1.2
Cc1cccc(NC(=O)Cn2c(=O)n3nc(CCn4nc(C)cc4C)nc3c3ccccc32)c1,-3.8,0.0,-14.5,-8.9,-0.6,-6.9,15.8
Cc1[nH]nc2c1C(c1ccccc1)C1=C(CC(C)(C)CC1=O)N2 (centres undefined),-6.4,/,-15.1,/,-1.5,-19.5,-0.1
COC(=O)C1(O)CC(C(C)C)=NN1C(=O)c1ccc(Cl)cc1 (centres undefined),-5.9,17.1,-12.9,-2.6[fluorescence artefact?],-3.2,-14.0,-1.2
CC(C)Cc1nc(N2CCN(C(=O)c3ccccc3)CC2)c(C#N)c2c1CCC2,-1.5,-11.9,-4.1,-0.4,5.0,4.1,1.5
CCCOc1ccc2oc(=O)c3c(c2c1)CCCN3C(=O)CN1CCCC(C(=O)OCC)C1 (centres undefined),-3.5,1.8,-1.7,-10.5,6.8,5.2,1.2
CCCCOP(=O)(c1ccc(N(C)C)cc1)C(O)c1cccnc1 (centres undefined),-0.7,-21.9,-4.0,7.7[fluorescence artefact?],2.8,5.1,-0.1
Cc1ccc(C(=O)c2oc3nc(C)cc(C)c3c2N)cc1,19.8,20.5,5.5,-11.4,-2.6,15.4,9.0
COc1ccc(-c2c(C)nn(Cc3ccccc3)c2N)cc1,-4.3,2.6,-4.5,85.9*,1.1,13.4,0.6
O=C1COc2ccc(OCc3ccc(F)cc3)cc21,3.6,-0.3,2.4,5.2,0.7,18.3,0.8
O=S(=O)(NCCSCc1c(Cl)cccc1Cl)c1ccc2c(c1)OCCO2,-4.9,15.0,-6.8,-0.3,-1.3,7.5,1.5
Cc1cccc(CSc2ncc(CO)n2C)c1,1.4,2.3,-1.3,1.0,2.5,10.5,0.8
O=C(O)CCCCC1CCSS1 (centres undefined),-13.8,-3.1,16.6,99.2*,-2.4,-1.1,101.2*
O=C(NC(NC(=S)Nc1ccccc1)C(Cl)(Cl)Cl)c1cccc(Cl)c1 (centres undefined),2.9,-7.0,-1.0,-6.8,-2.0,14.1,-1.1
COc1cccc(N(C(=O)Cn2nnc(-c3cccs3)n2)C(C(=O)NC2CCCCC2)c2ccncc2)c1 (centres undefined),-4.0,1.8,-5.2,14.2[fluorescence artefact?],1.5,-1.7,14.0
CCCOc1ccc(N2CC(C(=O)NC(C)C)CC2=O)cc1 (centres undefined),7.0,39.2,-1.7,-4.2,-1.3,5.7,-0.6
Cc1oc(-c2ccccc2)cc1C(=O)Nc1ccc2ccccc2c1,3.3,3.1,3.0,5.2[fluorescence artefact?],1.2,8.0,-0.6
COc1ccc(N2C(=O)CCC(C(=O)N3CCC(C(N)=O)CC3)C2c2ccc(F)cc2)cc1 (centres undefined),2.7,-5.5,3.5,3.2,1.1,20.6,-0.9
CCCCN(C(=O)c1c(C)[nH]c(C(=O)OCC)c1C)c1ccccc1,0.9,-8.5,0.8,0.0,-2.9,14.0,2.4
CCN(CC)S(=O)(=O)c1ccc2c(c1)nc(CCC(=O)Nc1cccc(C(F)(F)F)c1)n2CC,1.2,0.9,-3.4,-3.2,-0.8,6.5,0.5

# Next section, overlapping the part above by seven compounds.
SMILES,thrombin 1536,KLK5 inh,FXIa inh 1536,14-3-3 Bad inh,Wee1 stabilizer,FXIIa inh 1536,Hck Nef HTS
O=C(NC(NC(=S)Nc1ccccc1)C(Cl)(Cl)Cl)c1cccc(Cl)c1 (centres undefined),2.9,-7.0,-1.0,-6.8,-2.0,14.1,-1.1
COc1cccc(N(C(=O)Cn2nnc(-c3cccs3)n2)C(C(=O)NC2CCCCC2)c2ccncc2)c1 (centres undefined),-4.0,1.8,-5.2,14.2[fluorescence artefact?],1.5,-1.7,14.0
CCCOc1ccc(N2CC(C(=O)NC(C)C)CC2=O)cc1 (centres undefined),7.0,39.2,-1.7,-4.2,-1.3,5.7,-0.6
Cc1oc(-c2ccccc2)cc1C(=O)Nc1ccc2ccccc2c1,3.3,3.1,3.0,5.2[fluorescence artefact?],1.2,8.0,-0.6
COc1ccc(N2C(=O)CCC(C(=O)N3CCC(C(N)=O)CC3)C2c2ccc(F)cc2)cc1 (centres undefined),2.7,-5.5,3.5,3.2,1.1,20.6,-0.9
CCCCN(C(=O)c1c(C)[nH]c(C(=O)OCC)c1C)c1ccccc1,0.9,-8.5,0.8,0.0,-2.9,14.0,2.4
CCN(CC)S(=O)(=O)c1ccc2c(c1)nc(CCC(=O)Nc1cccc(C(F)(F)F)c1)n2CC,1.2,0.9,-3.4,-3.2,-0.8,6.5,0.5
CCOC(=O)C1=C(COc2ccc(F)cc2Cl)NC(=O)NC1c1cc(C)ccc1C (centres undefined),-5.5,-10.1,-10.4,-13.9,1.4,-4.5,1.3
Cc1ccc2oc(-c3cccc(NC(=S)NC(=O)/C=C/c4ccco4)c3)nc2c1,-1.8,-6.6,0.1,29.7[fluorescence artefact?],-1.1,12.5,34.5
CCOC(=O)Cn1nc(Cc2ccccc2)c2ccccc2c1=O,5.5,-8.3,0.4,6.0,1.0,12.8,1.7
Cc1cc(C)n(-c2cc(N3CCN(C(=O)c4cccc(Br)c4)CC3)ccc2[N+](=O)[O-])n1,-0.6,-2.6,2.6,14.8,-0.8,15.4,1.2
Cc1oc(/C=N/NC(=O)CN(c2ccccc2Br)S(C)(=O)=O)cc1Br,-3.7,-2.4,-5.5,-4.1[fluorescence artefact?],0.3,0.6,-0.3
Cc1c(NC(=O)C(C)OC(=O)[C@@H](NC(=O)c2ccccc2)C(C)C)c(=O)n(-c2ccccc2)n1C (some centres undefined),3.7,-18.8,-0.6,2.4[fluorescence artefact?],6.1,7.2,0.2
CN(C)S(=O)(=O)c1ccc(NC(=O)c2c(F)cccc2Cl)cc1,3.8,3.1,-1.3,-2.6,0.6,14.7,-0.7
CCN1CCCC1CNC(=O)c1cc(NC(C)=O)c(N(C)C)cc1OC (centres undefined),-2.3,-0.6,-2.7,-8.4,-1.4,15.5,0.5
O=[N+]([O-])c1cc(C(F)(F)F)ccc1NCCCCNS(=O)(=O)c1ccc2ccccc2c1,-5.4,0.2,-2.3,9.7,-2.2,8.8,0.3
CC(C)CC(=O)N1CCC(O)(CS(=O)(=O)Cc2ccccc2)CC1,-12.5,-12.9,-9.1,-0.8,-3.1,6.4,-0.2
CCOc1cc(CNc2ccc3c(c2)OCCO3)cc(Br)c1OCC,-5.7,-2.2,-12.6,-16.4,1.9,22.2,-0.1
Cc1cc(C)c2c(-n3cccc3)c(C(=O)NNS(=O)(=O)c3ccc(Cl)cc3)sc2n1,3.9,2.5,6.1,-0.1,2.6,10.3,2.6
COc1ccc(-c2c(C)n([O-])c3c([n+]2=O)CCCC3)cc1,-0.6,-3.9,-8.3,-7.0,-0.9,1.8,-0.2
CCOC(=O)c1c[nH]c2c(C)cc(C)cc2c1=O,4.4,-6.5,-8.4,6.3,1.4,15.8,0.7
CCOC(=O)c1c(C)[nH]c(C(=O)C(C)Sc2ccc(Cl)cc2)c1C (centres undefined),0.9,-4.2,2.3,1.7,6.5,18.1,-0.4
COC(=O)c1cccc(C(=O)Oc2cccc(Br)c2)n1,0.9,-25.1,2.2,-9.1,-1.8,14.6,3.2
O=C(O)c1c[nH]c2cc(C(F)(F)F)ccc2c1=O,-1.7,-2.3,-3.3,2.3,-2.8,6.6,0.9
O=C(/C=N/O)Nc1ccccc1,-3.3,-7.6,-6.0,-2.9,-0.2,6.1,0.7
O=C(O)c1c[nH]c(=S)n1-c1ccc(F)cc1,-0.6,-29.1,-5.3,-1.8[fluorescence artefact?],-2.2,10.4,0.5
S=C1NCCOCCOCCOCCN1,2.2,3.2,-12.3,2.3,0.3,17.5,0.6
C=CCn1c(SCc2ccc(C#N)cc2)nnc1-c1ccc(C)cc1,-3.9,-6.1,-7.5,3.2,-2.5,-1.1,-0.5
O=c1[nH]c(CSc2nnc(-c3ccccc3)n2C2CCCCC2)nc2ccccc12,0.6,-10.4,3.1,-9.2[fluorescence artefact?],-0.9,12.8,0.4
O=C(Nc1cccc(-c2nc3ccccc3s2)c1)c1ccc2c(c1)OCO2,10.1,19.8,2.6,-2.5,0.2,8.2,-0.7
Cc1cccc(C(=O)NC2CCN(C(=S)NCc3ccco3)CC2)c1,1.5,13.7,25.1,-14.7,-1.0,16.1,1.5
COC(=O)COc1ccc(Cl)cc1C1Nc2ccccc2C(=O)N1c1ccc(OC)cc1 (centres undefined),-0.1,-12.8,16.8,3.6,-1.9,19.1,-0.7
COC(=O)c1ccccc1OCCCOc1ccc(C=O)cc1OC,0.8,-9.0,2.6,-11.3,3.2,15.4,3.4
CCNC(=S)NNC(=O)c1ccoc1C,-3.6,-11.0,-5.8,-19.8[fluorescence artefact?],2.6,-0.1,0.7

# Not a retest: an excerpt of the list.
SMILES,thrombin 1536,KLK5 inh,FXIa inh 1536,14-3-3 Bad inh,Wee1 stabilizer,FXIIa inh 1536,Hck Nef HTS
COc1ccc(-c2c(C)n([O-])c3c([n+]2=O)CCCC3)cc1,-0.6,-3.9,-8.3,-7.0,-0.9,1.8,-0.2
CCOC(=O)c1c[nH]c2c(C)cc(C)cc2c1=O,4.4,-6.5,-8.4,6.3,1.4,15.8,0.7
CCOC(=O)c1c(C)[nH]c(C(=O)C(C)Sc2ccc(Cl)cc2)c1C (centres undefined),0.9,-4.2,2.3,1.7,6.5,18.1,-0.4
COC(=O)c1cccc(C(=O)Oc2cccc(Br)c2)n1,0.9,-25.1,2.2,-9.1,-1.8,14.6,3.2

# Bioassay records: PubChem, several laboratories

# Not all compounds are listed; the hit share may differ from the screen's.
